PKD1 kinase inh = inhibitors of human PKD1 kinase, biochemical, fluorescence polarization; inhibition, %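 (about 10 µM by stock and volumes)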; PKD1 kinase fluorescence polarization assay; 200,000 tested, 0.056% active;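 active = inhibition of 50% or more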;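 also: controls were vehicle for no effect and a reference inhibitor for full effect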
Target sequence (Q15139 whole entry, looked up): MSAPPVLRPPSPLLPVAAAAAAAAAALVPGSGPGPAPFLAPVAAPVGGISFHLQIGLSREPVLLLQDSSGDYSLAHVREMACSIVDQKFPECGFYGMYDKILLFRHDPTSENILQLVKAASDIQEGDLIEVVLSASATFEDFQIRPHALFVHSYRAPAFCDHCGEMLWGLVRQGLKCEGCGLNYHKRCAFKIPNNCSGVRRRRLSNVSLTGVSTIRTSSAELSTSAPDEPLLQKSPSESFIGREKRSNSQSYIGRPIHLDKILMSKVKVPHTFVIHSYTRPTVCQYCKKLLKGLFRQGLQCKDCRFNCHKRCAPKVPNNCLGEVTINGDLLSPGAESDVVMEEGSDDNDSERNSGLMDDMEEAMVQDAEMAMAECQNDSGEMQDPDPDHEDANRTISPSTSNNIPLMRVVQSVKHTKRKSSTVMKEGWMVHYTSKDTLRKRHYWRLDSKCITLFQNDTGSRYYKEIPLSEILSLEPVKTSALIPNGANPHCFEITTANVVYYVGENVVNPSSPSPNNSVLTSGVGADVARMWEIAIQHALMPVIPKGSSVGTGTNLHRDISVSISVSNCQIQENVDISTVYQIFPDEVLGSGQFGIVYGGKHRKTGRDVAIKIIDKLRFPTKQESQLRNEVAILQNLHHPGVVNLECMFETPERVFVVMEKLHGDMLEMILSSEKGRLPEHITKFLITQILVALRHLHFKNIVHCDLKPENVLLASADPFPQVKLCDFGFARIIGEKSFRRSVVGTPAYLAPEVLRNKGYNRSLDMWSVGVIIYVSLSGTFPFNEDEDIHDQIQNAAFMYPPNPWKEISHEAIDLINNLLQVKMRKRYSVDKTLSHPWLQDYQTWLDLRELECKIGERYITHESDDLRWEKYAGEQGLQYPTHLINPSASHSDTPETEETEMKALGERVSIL
HSV replic up = enhancers of HSV replication in host cells, fold increase, host cell viability | HSV replication augmentation in cells | maximum fold increase | 220,000 tested, 0.005% active | AID 1956, 2009;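 active = peak rise of 1.5-fold or more in the series; inconclusive = self-fluorescent or not available for retest; tested in PC3 cells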;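 also: first round at 10 µM; read as green reporter fluorescence; hits show the peak of a series up to 25 µM; 1 = signal of infected wells without compound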
Insulin prom inh = inhibitors of insulin promoter-driven GFP, primary screen, imaging, TRM-6 cells (human fetal islet line), eGFP reporter, cell count; reporter expression induced with tamoxifen; 130,000 tested, 0.9% active; inhibition, % at 2 µM;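 active = inhibition above the mean plus 3 SD, with well images judged a real hit on visual review, cut at about 60% in these data, passing the limit was not always enough; inconclusive = inhibition over the cutoff but images rejected on review; inactive = inhibition not above the cutoff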
RGS16-Gao = modulators of RGS16 binding to Galphao, primary screen, biochemical, human proteins, multiplexed bead flow cytometry | 220,000 tested, 0.38% active | binding response (% of control), % at 10 µM | bead-based flow cytometry RGS16-Galphao binding, fluorescence; actives lie on both sides | AID 1441, 2008;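 active = below 25% or above 175%, edge rows of some plates excepted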;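 also: Galphao activated by GDP with aluminum fluoride before binding; 100% = wells without compound and 0% = beads without RGS; some results beyond the cut were filed as inactive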
GALR2 ag = GALR2 receptor agonists, primary screen, cell-based | Galanin receptor type 2 (Homo sapiens), O43603 | GALR2-expressing cells, agonist activation read-out | activation, %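 (tested at 5 µM)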 | 140,000 tested, 0.48% active;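 active = above mean plus 3 SD of all compounds, about 5% in these data, not always enough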;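 also: 0% = vehicle buffer wells and 100% = reference agonist at full effect; tested in CHO reporter cells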
Insulin prom inh cell count = also measured in Insulin prom inh; calls as there; normalized cell count, %; measured here: cell count, toxicity; reference of the scale not given here;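 cells exposed to compound for 48 h; stained nuclei by imaging scaled within each plate; lower means fewer cells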
HSV replic up primary fold = recorded beside HSV replic up, whose call it bears; fold increase; compound at 10 µM; measured here: primary screen fold increase 10 uM; tested in PC3 cells;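 GFP signal in the first replicate; 1 = infected wells without compound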
Numbers without * were called inactive; i = inactive; ? = inconclusive; nt = no result given; & = joins results of further samples. The order is random; about 1.1% have a hit in one of these screens.

Results follow in this order: PKD1 kinase inh	HSV replic up	HSV replic up primary fold	Insulin prom inh	Insulin prom inh cell count	RGS16-Gao	GALR2 ag
Cn1cnnc1SC(C(=O)c1ccccc1)c1ccccc1 (centres undefined)
    -2	i	1	14	57	102	-4.5
Cc1n(CC(O)COCc2ccccc2)c2ccccc2[n+]1C (centres undefined)
    3	nt	nt	3	94	97	0.1
NC(=O)CN1CCN(C(=O)NC2CCCCC2)CC1
    -2	i	0.88	nt	nt	111	-3.1
Cc1ccc(NC(=S)NC(=O)c2ccc(-c3ccc(Cl)cc3)o2)c(O)c1
    3	i	0.91	29	142	102	-0.8
CC1CCN(c2nc3c(c(=O)n(C)c(=O)n3C)n2CCSc2nc3ccccc3o2)CC1
    1	i	0.83	-45	79	106	-2.8
Cc1csc(SCC(=O)NCc2cccs2)n1
    6	i	0.79	nt	nt	103	-1.7
Cc1cc(C)c2c(n1)sc1c(=O)n(Cc3ccccc3Cl)nnc12
    1	nt	nt	-15	129	98	-0.9
COc1ccc(-c2ccc(/C=N/NC(=O)c3cccnc3)o2)c([N+](=O)[O-])c1
    2	i	1.2	-116	89	98	-0.5
O=C(NC(=S)Nc1cccnc1Cl)c1ccco1
    4	i	0.95	nt	nt	96	nt
O=C(OCC(=O)N1CCN(C(=O)COC(=O)c2ccncc2)CC1)c1ccncc1
    1	i	0.88	nt	nt	71	-1.3
Cc1cc(C)n(-c2ccc(C(=O)OCC(=O)NCc3ccc(Cl)cc3)cc2)n1
    -6	i	1	nt	nt	105	-0.5
COC(=O)c1cc(-c2ccccc2)n(CC(=O)O)c1C
    -13	i	1	nt	nt	102	0.6
CC(C)N(CC#CCC1(O)c2ccccc2-c2ccccc21)CCO
    9	i	0.89	0	120	100	1.1
COC(=O)c1ccc2c(=O)[nH]c(CN3c4ccccc4CC3C)nc2c1 (centres undefined)
    3	i	0.99	13	144	91	-5.0
CCN1C(c2ccccc2)C(C)C(=O)C(C)C1c1ccccc1 (centres undefined)
    1	i	0.93	26	57	101	-0.6
Cc1ccc(NC(=O)CSc2nnc(-c3ccncc3)o2)cc1C
    -4	i	0.98	nt	nt	100	nt
Cc1ccc(NC(=O)COC(=O)C2CSC3(C)CCC(=O)N23)cc1S(=O)(=O)N1CCOCC1 (centres undefined)
    -3	i	0.96	-7	107	103	nt
Cc1noc(C)c1-c1nc(CSc2ccccc2)no1
    nt	i	1	nt	nt	104	nt
O=C(CSc1nnc2ccc(-c3ccc(F)cc3)nn12)N1CCCC1
    -10	i	1	-33	125	90	nt
CS(=O)(=O)N1CCC(C(=O)Nc2ccc(Cl)c(Cl)c2)CC1
    -4	i	1.1	55	102	94	nt
CCCC(=O)Nc1ccc(-c2nc3cc(C)c(C)cc3o2)c(O)c1
    10	i	0.96	0	95	95	-1.6
Cc1cc(=O)n2c3c(cccc13)CCC2
    1	i	1.1	-43	32	92	-1.9
Nn1c(SCC(=O)N2CCOCC2)nnc1-c1ccco1
    -11	i	0.95	3	106	103	-2.4
COCCCNC(=O)c1ccc([N+](=O)[O-])cc1
    1	i	0.97	27	119	106	nt
O=C1NC(c2ccccn2)Nc2sc3c(c21)CCC3 (centres undefined)
    6	i	1.1	nt	nt	101	-0.9
CCCc1nc2sc3c(=O)n(N)cnc3c2c2c1COC(C)(C)C2
    -5	i	0.85	nt	nt	112	1.0
O=C(COc1ccc(C(=S)N2CCOCC2)cc1)Nc1ccccc1C(F)(F)F
    -13	i	1.1	nt	nt	97	nt
CCc1nnc(NC(=O)c2cccc(NC(=O)C(C)C)c2)s1
    3	i	0.92	-16	149	103	-0.5
O=C(Cn1nc(-c2cccc([N+](=O)[O-])c2)c2ccccc2c1=O)NCC1CCCO1 (centres undefined)
    -5	i	0.91	nt	nt	89	nt
CCOc1ccccc1CNS(=O)(=O)c1ccc2c(c1)oc(=O)n2C
    6	i	1.4	nt	nt	100	-2.0

Whole records as entered above. Order of screens: PKD1 kinase inh | HSV replic up | HSV replic up primary fold | Insulin prom inh | Insulin prom inh cell count | RGS16-Gao | GALR2 ag
`COCCCNC(=O)c1ccc([N+](=O)[O-])cc1` reads 1 | i | 0.97 | 27 | 119 | 106 | nt
`Cc1ccc(NC(=O)COC(=O)C2CSC3(C)CCC(=O)N23)cc1S(=O)(=O)N1CCOCC1` (centres undefined) reads -3 | i | 0.96 | -7 | 107 | 103 | nt
`Cc1ccc(NC(=S)NC(=O)c2ccc(-c3ccc(Cl)cc3)o2)c(O)c1` reads 3 | i | 0.91 | 29 | 142 | 102 | -0.8
`Cc1cc(C)c2c(n1)sc1c(=O)n(Cc3ccccc3Cl)nnc12` reads 1 | nt | nt | -15 | 129 | 98 | -0.9

The list continues:
Results follow in this order: PKD1 kinase inh	HSV replic up	HSV replic up primary fold	Insulin prom inh	Insulin prom inh cell count	RGS16-Gao	GALR2 ag
Cc1cc(NC(=O)CCCC(=O)Nc2ccc(F)cc2)no1
    1	i	1	-75	20	94	-0.5
O=C(CCC1CCCN(C(=O)C2=CCCCC2)C1)N1CCN(c2ccccn2)CC1 (centres undefined)
    3	i	1	nt	nt	99	nt
O=C(O)c1ccc(N/N=C/c2ccc(-c3ccccc3Cl)o2)cc1
    nt	i	0.92	nt	nt	106	nt
COC(=O)c1c(NC(=O)c2ccco2)sc(C(=O)Nc2ccc(F)cc2)c1C
    1	i	0.87	nt	nt	98	-1.3
CN(C)c1ccc(/C=N/NC(=O)c2ccnn2C)cc1
    -4	i	0.99	nt	nt	104	nt
CC(CC(=O)Nc1ccc(F)c([N+](=O)[O-])c1)c1ccccc1 (centres undefined)
    -3	i	0.99	nt	nt	97	-1.2
CC(C)C(NS(=O)(=O)c1c(Cl)cccc1Cl)C(=O)OCC(=O)c1c[nH]c2ccccc12 (centres undefined)
    -5	i	0.89	-18	75	105	-1.0
NS(=O)(=O)c1ccc(NCc2cc(Cl)ccc2OCc2ccccc2F)cc1
    13	i	0.95	nt	nt	82	-1.4
Cc1ccc(C(=O)Nc2ccnc(-c3cccnc3)n2)cc1
    2	i	0.98	28	171	102	nt
COc1ccc(C2C(C(C)=O)=C(O)C(=O)N2c2nc3ccccc3s2)cc1OC (centres undefined)
    12	i	1.1	53	88	99	nt
Nn1cc(-c2ccccc2)nc1SCC(=O)NCC(F)(F)F
    -7	nt	nt	7	136	107	nt
N#Cc1cc(C(=O)c2cc(F)ccc2O)cn(-c2nccs2)c1=O
    -1	?	nt	4	114	71	-1.2
CCOC(=O)N1CCN(C(=O)CSc2ccc(Cl)cc2)CC1
    -10	i	0.85	11	68	100	-3.0
CC1CCCN(C(=O)CSc2nnc(-c3ccncc3)n2C)C1 (centres undefined)
    -5	i	1	-258	66	25	nt
CC12Cc3ccc4ccccc4c3C=C1C[N+](C)(C)C2 (centres undefined)
    -1	i	0.92	-41	105	108	0.3
O=C(Nc1nc2ccc(Cl)cc2s1)[C@@H]1CCCN1C(=O)c1cccs1
    5	i	0.98	17	90	120	-1.2
Cn1c(SCC(=O)NC2CCCCC2)nnc1-c1ccc(N)cc1
    -1	i	0.99	nt	nt	99	nt
O=C(NCCc1c[nH]c2ccccc12)C(=O)NCC(c1cccnc1)N1CCN(c2ccccc2)CC1 (centres undefined)
    -4	i	0.71	12	120	70	-0.1
O=C(NCc1ccccc1)C1=C[C@H](C2CCCCC2)C[C@H](OCc2ccc(CO)cc2)O1
    -9	i	0.87	nt	nt	102	nt
CO/N=C/c1ccc(Sc2ccccc2)c([N+](=O)[O-])c1
    1	i	0.87	-50	139	97	-2.2
CCOc1ccc(NC(=O)c2ccccc2NS(=O)(=O)c2ccc(F)cc2)c([N+](=O)[O-])c1
    -7	i	1	-16	98	98	-0.5
Nc1cccc2[nH]c(C(F)(F)F)nc12
    1	i	1.1	67	55	102	nt
Cc1nn(Cc2ccc(F)cc2)c(C)c1NC(=O)c1cccnc1Cl
    7	i	0.96	5	45	122	-1.7
CCCCn1c(CCC)nc([N+](=O)[O-])c1Sc1ccc(Cl)cn1
    -6	i	0.7	55	149	87	-4.0
O=C(NCCCN1CCOCC1)C1(c2ccccc2)CCOCC1
    -7	i	0.84	nt	nt	92	-0.7
Cc1ccc(Sc2c(O)c3ccccc3n(C)c2=O)cc1
    -3	i	0.95	29	53	14*	-1.3
CCC(Oc1ccccc1)C(=O)N1CCN(C(=O)C(CC)Oc2ccccc2)CC1 (centres undefined)
    -2	i	0.91	-23	97	105	-3.6
CSc1ccccc1NC(=O)c1noc2c1CCC2
    3	i	0.9	-160	143	86	-2.1
c1ccc(-c2[nH]ncc2-c2nc3ccccc3[nH]2)cc1
    -5	i	1	nt	nt	99	-0.6
NC(=O)CSc1nc(-c2ccccc2Cl)ns1
    -4	i	0.76	nt	nt	96	0.2

(more compounds)
Results follow in this order: PKD1 kinase inh	HSV replic up	HSV replic up primary fold	Insulin prom inh	Insulin prom inh cell count	RGS16-Gao	GALR2 ag
O=C(O)c1ccc(-c2ccccc2C(F)(F)F)o1
    -2	i	1	nt	nt	101	-0.2
Cc1nc2ccccc2c(=O)n1N(c1ccccc1)c1ccccc1
    -2	i	1.1	nt	nt	110	nt
Cc1ccc(N2C(=O)CC(Cn3nc(C)cc3C)C2=O)cc1 (centres undefined)
    -2	nt	nt	0	97	106	-1.6
Cc1nn2c(nc1=O)NNC2(C)C(C)(C)C (centres undefined)
    -4	i	0.96	nt	nt	105	nt
O=C(Cn1cc([N+](=O)[O-])cn1)NCCc1nc2ccccc2[nH]1
    1	nt	nt	69	98	107	nt
CCOC(=O)C1CCN(Cc2cnc(Oc3ccc(C(C)(C)C)cc3)s2)CC1
    -1	i	0.92	35	74	97	-1.0
CC(=O)C1=C(O)C(=O)N(Cc2ccco2)C1c1ccc2c(c1)OCO2 (centres undefined)
    -1	i	0.77	-17	265	84	-0.9
O=C(CN1C(=O)CC(c2ccccc2)S(=O)(=O)c2ccccc21)NC1CCCC1 (centres undefined)
    -2	i	0.96	7	72	116	nt
NC(=O)CCS(=O)(=O)c1ccccc1
    -6	i	0.98	nt	nt	99	-1.9
Cc1ccc(C(=O)Nc2nc(=O)[nH]s2)cc1
    3&0	i	0.96&0.96	43&13	36&88	50&103	nt
COC(=O)c1cc(NC(=O)CSc2nc(C)cc(=O)[nH]2)cc(C(=O)OC)c1
    1	i	0.93	-37	96	102	-2.3
CCOC(=O)C1CCN(C(=O)C(=O)N2CCC(C(=O)OCC)CC2)CC1
    3	i	1.2	34	110	120	-1.6
CCCC1Cc2c(sc(NC(=S)NC(=O)c3ccccc3)c2C#N)CO1 (centres undefined)
    -7	i	1	10	121	112	1.1
COc1ccc(C(=O)NCC(=O)OCC(=O)Nc2c(C)n(C)n(-c3ccccc3)c2=O)cc1
    0	i	0.92	13	97	100	-2.4
COc1ccccc1N(C)S(=O)(=O)c1ccc(C(=O)OCC(N)=O)cc1
    -4	i	0.66	0	172	104	nt
O=C(c1cn(-c2ccccc2)nc1-c1ccccc1)n1nnc2ccccc21
    -6	?	nt	-22	122	112	-1.7
Cc1cc(NC(=O)c2cc(-c3cccs3)on2)no1
    -2	i	1.1	nt	nt	100	-1.1
Oc1ccccc1N1CCN(CC(O)COCc2ccccc2Cl)CC1 (centres undefined)
    -8	i	0.98	-29	99	99	nt
CC(=O)N1c2ccccc2NC2=C(C(=O)CC(C)(C)C2)C1c1cccn1C (centres undefined)
    1	i	1	23	166	105	nt
CN(C)CCCNC(=O)c1cc(Br)ccc1Cl
    -1	i	0.95	14	116	112	-1.2
CC(C)(C)c1ccc(C(=O)NNc2cc(N3CCOCC3)nc(N3CCOCC3)n2)cc1
    5	i	0.97	60	43	207	nt
COc1ccc(CNC(=O)COC(=O)Cc2ccc(Cl)cc2Cl)cc1
    8	i	1.1	nt	nt	91	-1.5
Cc1csc(=N)n1-c1ccc(Cl)cc1
    -6	i	0.94	91*	94*	100	-1.9
CCCCNC(=S)N1CCN(C(c2ccccc2)c2ccccc2)CC1
    -4	i	0.84	13	53	98	nt
COc1ccc2c(c1)N(S(=O)(=O)c1ccccc1)CCC2=O
    -1	i	0.79	-15	66	131	-1.8
CCNC(=O)NC(=O)COc1ccccc1C#N
    0	i	1.2	0	121	101	-0.3
CCc1ccccc1NC(=O)CSc1nnc([C@@H]2CCCN2C(=O)OC(C)(C)C)o1
    9	i	0.96	29	94	102	-2.7
CCC(C)n1cnc2c(c1=O)c1nc3ccccc3nc1n2Cc1ccc2c(c1)OCO2 (centres undefined)
    -6	i	1	3	100	99	-1.1
